# 2A Renilla – FMDV 2A StopGo reporter, Renilla signal; HEK cells with a luciferase reporter of 2A StopGo recoding; Potency, µM (series often up to 57.5 µM), for inactives: at the top dose signal change, negative = less light; actives 0.32% (n = 120,000); AID 1745857; active means well fitted falling curve with a large enough effect; inconclusive means small, poorly fitted or top-dose-only effect; inactive means no such curve, though single readings can be large or run the other way; also: nearly all actives have a fitted effect of over 55% in size; overnight with compound
# StopGo FLuc – lowers the firefly signal of an FMDV 2A StopGo reporter | HEK cells with a luciferase reporter of 2A StopGo recoding | Potency, µM (titrated, usually from 57.5 µM), for inactives: at the top dose signal change, negative = less light | actives 0.23% (n = 120,000); active = well fitted falling curve with a large enough effect; inconclusive = small, poorly fitted or top-dose-only effect; inactive = no such curve, though single readings can be large or run the other way; also: nearly all actives have a fitted effect of over 60% in size; overnight with compound
# The depositor's hits bear a star; u = inconclusive; & = joins results of further samples; [ ] = dose if it differs, or a comment. % is scaled to controls: 0 for no effect and ±100 for the full control effect; potency is read from the fitted curve at half-maximal effect.
Structure,2A Renilla,StopGo FLuc
CCCNc1c(NC(=O)Nc2ccc(C)c(F)c2)c(=O)oc2ccccc12,11%,3%
CCCN(Cc1cc2cc(C)ccc2[nH]c1=O)C(=O)c1ccc(C(C)(C)C)cc1,4%,6%
CC(=O)N1CCC(N(CCCN2CCC(C)CC2)C(=O)Nc2ccccc2C)CC1,-4%,-1%
Cc1ccc(S(C)(=O)=O)cc1NC(=O)CCNC(=O)Cc1ccccc1,-5%,-6%
CCNC(=O)NC(=O)C(C)Sc1nc(-c2ccco2)nc2ccccc12 (stereo not given),-20%,-6%
C#CCOc1nc2c(c(=O)n(C)c(=O)n2C)n1Cc1ccccc1Cl,4%,8%
CCCC(=O)C1=C(c2cccc(OC)c2)N(C(=O)CCC)n2c(C)nnc2S1,0%,-12%
CC(C)(C)c1ccc(N=Cc2cccs2)cc1,4%,4%
Cc1oc2cc3oc(=O)c(CC(=O)N4CCCCC4)c(C)c3cc2c1C,-7%,-16%
c1cc2c(cc1Nc1nc(CN3CCOCC3)nc3sc4c(c13)CCCC4)CCC2,-19%,-8%
Cc1cccc(-n2c3nc(=O)[nH]c(=O)c-3cc3ccc(Cl)cc32)c1C,0%&14%,56%&31%[activator]
Cc1ccccc1NC(=O)C1CCN(S(=O)(=O)c2cccc3nonc23)CC1,-10%,-10%
Cc1ccccc1CS(=O)(=O)Cc1ccc(C(=O)NCc2ccc(F)cc2)o1,-8%,-30%
CC(=O)N1CCN(CC(=O)Nc2sc3c(c2C(N)=O)CCCC3)CC1,-4%,2%
COc1ccc(-c2nc(CS(=O)CC(=O)NCCCOC(C)C)c(C)o2)cc1OC (stereo not given),-2%,14%
O=C(Nc1cc(F)cc(F)c1)c1ccc2c(c1)CCC2,18%,274%[activator]
C/C(=C/C(=O)C(F)(F)F)N1CCC(C(N)=O)CC1,4%,2%
CCN(CC)C(=O)C1CCN(C(=O)c2cnn(-c3ccccc3)c2-n2cccc2)CC1,6%,16%
COc1ccc(C2C3=C(CC(C)(C)CC3=O)Nc3ccccc3N2C(=O)C(F)(F)F)cc1OC (stereo not given),61%[activator],-8%
CNc1c(NS(=O)(=O)c2ccc(F)c(C)c2)c(=O)oc2ccccc12,5%,6%
Cc1ccc(C(=O)CC(c2ccc(Cl)cc2)S(=O)(=O)c2ccc(C)cc2)cc1 (stereo not given),-1%,15%
CCCCCCn1c(=O)c2c(ncn2C)n(C)c1=O,1%,-11%[11.5 µM]
O=C(Cc1cccs1)Nc1ccc(-c2nc3cc(Cl)ccc3o2)cc1,9%,147%[activator]
COc1cccc(CNC(=O)CCn2ccc3cc(S(=O)(=O)N4CCCC4)ccc32)c1,2%,-15%
CC(C)N1CCC(CNC(=O)CCc2c[nH]c3ccccc23)C1 (stereo not given),-10%,-12%

# 4 entries out of the list, sorted by length of the SMILES, descending:
Structure,2A Renilla,StopGo FLuc
CCCNc1c(NC(=O)Nc2ccc(C)c(F)c2)c(=O)oc2ccccc12,11%,3%
Cc1ccc(S(C)(=O)=O)cc1NC(=O)CCNC(=O)Cc1ccccc1,-5%,-6%
C/C(=C/C(=O)C(F)(F)F)N1CCC(C(N)=O)CC1,4%,2%
CCCCCCn1c(=O)c2c(ncn2C)n(C)c1=O,1%,-11%[11.5 µM]

# Quoted at random: two compounds from above
Structure,2A Renilla,StopGo FLuc
C/C(=C/C(=O)C(F)(F)F)N1CCC(C(N)=O)CC1,4%,2%
CC(=O)N1CCC(N(CCCN2CCC(C)CC2)C(=O)Nc2ccccc2C)CC1,-4%,-1%

# (further entries)
Structure,2A Renilla,StopGo FLuc
CC1CCN(C(=O)C2CCN(c3nc4ccccc4nc3OC(C)C)CC2)CC1,3%,1%
CC(C)Oc1ccc(C(=O)NC2CCCC2)cc1,7%,160%[activator]
CC(NC(=O)c1ccc(N2CCCC2=O)cc1)c1ccccc1Cl (stereo not given),11%,22%
CCc1nnc2c3ccccc3nc(Nc3cc(C)cc(C)c3)n12,-17%,-8%
Cc1cc2oc(=O)cc(CN3CCN(CCc4ccncc4)CC3)c2cc1C,-9%,-13%
Cc1ccccc1C1C2=C(CCCC2=O)Nc2nc(SCc3ccc(C(=O)O)cc3)nn21 (stereo not given),-4%,1%
O=C(NCCc1ccc(F)cc1)C(=O)NCC(c1cccs1)S(=O)(=O)c1ccccc1 (stereo not given),-7%,14%
CCc1c(C(=O)NC2CCC(C)CC2)csc1C (stereo not given),24%,49%[activator]
CCOc1cccc(C(=O)N(Cc2ccc(CC)cc2)C2CCS(=O)(=O)C2)c1 (stereo not given),7%,-15%
CC(=O)N1c2ccc(S(=O)(=O)NCC3CCC(C(=O)Nc4ccccc4C)CC3)cc2CC1C (stereo not given),4%,19%
CC(C)(C)NC(=O)COc1ncnc2c(Cl)cc(Cl)cc12,-10%,-2%
CCCOc1ccc(-c2nn(-c3ccccc3)cc2C2NC(=O)NC(C)=C2C(=O)OCC)cc1 (stereo not given),10%,0%
CC(C)(C(=O)NCCc1c[nH]c2ccccc12)c1ccccc1,2%,-5%
CCCNC(=O)CNC(=O)C1=NN(C)C(=O)CC1,-1%,-2%
O=C(CCn1c(=O)c2sccc2n(CC(=O)Nc2ccccc2)c1=O)NCc1ccccc1Cl,82%[activator],-7%
O=C(COc1ccc([N+](=O)[O-])cc1)NCC1(N2CCOCC2)CCCCC1,-3%,-21%
O=S1(=O)c2ccc(N3CCN(Cc4ccccc4F)CC3)cc2Oc2ccccc2CN1Cc1cn(Cc2ccccc2C(F)(F)F)nn1,66%[activator],41%[activator]
CCOc1ccc(NC(=O)c2oc3ccccc3c2NC(=O)c2ccc(OC)cc2OC)cc1,-8%,-11%
O=C(O)CNCc1ccc(-c2ccccc2)cc1,-6%,-9%
CC(C)CCNC(=O)Nc1cc(C(=O)NCc2cccc(F)c2)ccc1N1CCCC1,56%[activator],-1%
O=C(Nc1ccc(N2CCCCC2)cc1)C1=COCCO1,5%,-82%
COc1ccc(-n2c(/C=C/c3cc(OC)c(OC)cc3OC)nc3cc4ccccc4cc3c2=O)cc1Cl,-11%,-24%
N#Cc1ccccc1CON=C1CCC2(CC1)OCCO2,16%,193%[activator]
O=C(CCC(=O)OCC(=O)c1ccc(Cl)cc1)Nc1ccc(Oc2ccccc2)cc1,-9%,0%
CCC(CC)C(CNC(=O)c1cccc(Cl)c1Cl)N1CCOCC1 (stereo not given),0%,2%
CC1=C(c2ccc(C)cc2)S(=O)(=O)NC1=NCCCN1CCN(c2ccc(F)cc2)CC1,17%,-13%
CC(=O)c1ccc(NC(=O)c2ccc3c(c2)N(Cc2cccc(Cl)c2)C(=O)c2ccccc2S3=O)cc1 (stereo not given),-16%,-20%
Cc1ccc(N(CC(=O)Nc2c(C)cccc2C)S(C)(=O)=O)cc1,5%,0%
O=C(CCSCc1nc2ccccc2s1)NC1CCCCC1,21%,178%[activator]
O=C1CC2(CCCCC2)CC(=O)O1,11%,12%
Cc1nc(NCC2CCCO2)c(C#N)c2c1CCCC2 (stereo not given),11%,71%[activator]
COc1cc(NC(=O)COc2ccc3c(C)c(C)c(=O)oc3c2)cc(OC)c1,10%,21%
COc1ccc2oc(=O)c(C(=O)NCCc3c(C)[nH]c4ccc(Br)cc34)cc2c1,-1%,-9%
COc1ccc(Cl)cc1NC(=O)C(C)n1nnc2sc3c(c2c1=O)CCCC3 (stereo not given),-6%,-4%
CC(=O)C1(C)N(O)C(C)(C)C(c2ccc(Cl)cc2)=[N+]1[O-] (stereo not given),0%[1.06 µM],-9%
Cc1ccccc1C(=O)Nc1cccc(OCc2cc(=O)n3c(C)csc3n2)c1,-4%,20%
Cc1cc(C)c(S(=O)(=O)N2CCOC23CCN(C(=O)CCc2ccccc2)CC3)c(C)c1,-1%,-8%
COc1cc(OC)cc(C(=O)OCC(=O)Nc2c(C)cccc2C(C)C)c1,25%,69%[activator]
O=C(NCC(c1cccs1)N1CCCCCC1)c1cc(=O)c2cc(Br)ccc2o1 (stereo not given),-4%,-8%
CC(C)CNC(=O)N1CCC2(CC1)Nc1ccccc1-n1cccc12,5%,-6%
CCSc1ccc(C(=O)Nc2ccc(-c3nc4ccc(C)cc4s3)cc2)cc1,-6%,26%
COc1ccc(CNS(=O)(=O)c2cc(C(=O)Nc3cc(Cl)cc(Cl)c3)ccc2F)cc1,-11%,-22%
COc1ccc(-c2cn3c(n2)sc2cc(C(=O)Nc4ccccc4F)ccc23)cc1,-10%,43%[activator]
O=C1c2oc3ccccc3c(=O)c2C(c2cccc(Br)c2)N1c1ccccn1 (stereo not given),22%,4%
Clc1ccc2c(c1)C(N1CCNCC1)=Nc1ccccc1O2,-10%,-3%[11.5 µM]
CCOc1ccc(NC(=O)c2noc3c2CSc2ccccc2-3)cc1,-3%,3%
COc1ccccc1CNC(=O)c1ccc(-c2nc(CN3CCc4ccccc43)c(C)o2)cc1,-30%,u
O=C(Cn1nc(-c2cccs2)c2ccccc2c1=O)NCc1cccc(Cl)c1,0%,-3%
C=CCn1c(-c2ccc(SC)cc2)c(-c2ccccc2)sc1=Nc1ccc(C)cc1,45%[activator],35%
O=Cc1cccc(OCc2ccc(Cl)c(Cl)c2)c1,6%,76%[activator]

# Profiles, quoted from the list. Order of values: 2A Renilla	StopGo FLuc
# O=C(CCSCc1nc2ccccc2s1)NC1CCCCC1 reads 21%	178%[activator]
# COc1ccc(-c2cn3c(n2)sc2cc(C(=O)Nc4ccccc4F)ccc23)cc1 reads -10%	43%[activator]
# CCSc1ccc(C(=O)Nc2ccc(-c3nc4ccc(C)cc4s3)cc2)cc1 reads -6%	26%
# CCOc1ccc(NC(=O)c2noc3c2CSc2ccccc2-3)cc1 reads -3%	3%
# COc1ccccc1CNC(=O)c1ccc(-c2nc(CN3CCc4ccccc43)c(C)o2)cc1 reads -30%	u

# Back to the main list, starting 4 compounds before the break.
Structure,2A Renilla,StopGo FLuc
COc1ccccc1CNC(=O)c1ccc(-c2nc(CN3CCc4ccccc43)c(C)o2)cc1,-30%,u
O=C(Cn1nc(-c2cccs2)c2ccccc2c1=O)NCc1cccc(Cl)c1,0%,-3%
C=CCn1c(-c2ccc(SC)cc2)c(-c2ccccc2)sc1=Nc1ccc(C)cc1,45%[activator],35%
O=Cc1cccc(OCc2ccc(Cl)c(Cl)c2)c1,6%,76%[activator]
O=C(c1ccccc1Cl)N1CCCC(c2nc3c(nnn3Cc3ccc(F)cc3F)c(=O)[nH]2)C1 (stereo not given),6%,-3%&-4%
Cc1ccc(OCCSc2nc(-c3ccccc3C)nc3cc(=O)[nH]n23)cc1Cl,1%,5%
CCN(CC)c1ccc(/C=N/NC(N)=S)cc1,34%[activator],0%
CCOc1ccc(NC(=O)Nc2cc(C)c3nc(NC(C)=O)sc3c2)cc1,3%,22%
CN(CC(=O)NC(C)(C)C)C(=O)c1cc2cc(Br)ccc2[nH]1,23%,8%
O=C(COc1ccc(F)cc1)Nc1cccc2cccnc12,10%,22%
Cc1cc2oc(=O)cc(CN(C)CCOc3ccc(F)cc3)c2cc1Cl,2%,-1%
COC(=O)CC(NC(=O)Cc1cc(C(C)=O)ccc1OC)c1cccs1 (stereo not given),2%,-6%
O=C(Cc1csc(-c2ccsc2)n1)Nc1ccnn1Cc1c(Cl)cccc1Cl,-27%,-19%
CCCc1sc(C(=O)Nc2ccccc2O)cc1CC,13%,174%[activator]

# Screens from PubChem BioAssay.

# These rows are one share of the data. The share of hits here may be higher or lower than overall.
